High-throughput results (PubChem BioAssay)
Menin-MLL FL inh: displaces fluorescein MLL peptide from human menin | FP activity change, % at 61.4 µM | 290,000 tested, under 10 active | Fluorescence polarization, fluorescein-MLL peptide displacement from menin; inconclusive = falling polarisation curve, or a change in total fluorescence; inactive = total fluorescence flat and polarisation flat or rising; no compound was filed as active; the % refers to the polarisation; negative = inhibition;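 also: % of control where 0% means no effect; inhibitors lower the polarisation; unlabelled MLL peptide was the positive control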
gsp ag: activates gsp, the McCune-Albright syndrome mutation | 340,000 compounds, 0.13% hits | Potency, µM (titrated, usually from 76.9 µM), without a hit: at the top dose activation (cAMP increase), actives largely listed as activators | gsp mutant cells, cAMP HTRF, 30 min; control for the full effect not named in the record; active = well fitted activation curve with a large enough effect; inconclusive = small, poorly fitted or top-dose-only effect, or another doubt; inactive = no such curve, though single readings can be large or run the other way; cell line not stated here;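 also: phosphodiesterase inhibitor Ro 20-1724 added with compounds to block cAMP breakdown; potency is read from the fitted curve at half-maximal effect; nearly all actives have a fitted effect of over 60% in size; about a fifth of the inactives were tested at one dose only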
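Cells stably selected in G418 were plated at 2000/well, grown 16-24 hr, then given compounds in DMSO with the PDE inhibitor […] (300 uM solution added) for 30 min at 37C; cAMP was read by HTRF.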
CtBP-E1A inh: CtBP/E1A binding inhibition; AlphaScreen GST-E1A/His-CtBP binding, 1536-well; active compounds read low; control for the full effect not named in the record; activity change, % (test concentration not listed); 340,000 compounds, 0.49% hits; AID 651724; in the data active means activity change below about -65%; inconclusive means about -30% to -65%; inactive means above about -30%; also: % is scaled to controls: 0 for no effect and ±100 for the full control effect
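Steps: dispense buffer (Tris pH 8.0, NaCl 300 mM, TCEP 1 mM, BSA, Tween 20); add 5X protein mix (GST-E1A, His-CtBP, 125 nM each); pin 23 nL compound; 2 h at 37 °C, dark; add 5X beads (50 ug/mL); 1 h; read.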
ClpP mod: qHTS Assay for Activators of ClpP; ATP-dependent Clp protease proteolytic subunit (Bacillus subtilis (strain 168)), P80244; 340,000 compounds, 1.9% hits; Potency, µM (series often up to 57.5 µM), for inactives: at the top dose activity change, negative = active; purified B. subtilis ClpP, FRET peptide cleavage, 20 min; active = well fitted falling curve with a large enough effect; inconclusive = small, poorly fitted or top-dose-only effect; inactive = no such curve, though single readings can be large or run the other way; also: potency is read from the fitted curve at half-maximal effect; the source files actives as falling curves though it sought activators and does not explain the sign; nearly all actives have a fitted effect of over 65% in size; many hits overshoot -100%
Target sequence (P80244 whole entry, looked up): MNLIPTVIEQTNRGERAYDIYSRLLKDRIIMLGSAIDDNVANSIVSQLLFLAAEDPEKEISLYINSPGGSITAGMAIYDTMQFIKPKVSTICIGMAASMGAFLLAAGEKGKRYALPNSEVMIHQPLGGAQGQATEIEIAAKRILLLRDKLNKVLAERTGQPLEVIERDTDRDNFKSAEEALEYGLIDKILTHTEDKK
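ClpP 10 microg/mL final, pH 8 Tris/KCl buffer with BSA, glycerol, Tween-20; compound pinned in; FRET-FV substrate; RT 20 min; Ex320/Em430; ΔFRET vs ADEP 5.8 microM, DMSO, no enzyme.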
gsp antag: antagonists of gsp mutant (McCune-Albright syndrome). gsp-mutant cells, cAMP HTRF, 30 min; control for the full effect not named in the record. Potency, µM (series often up to 76.9 µM), without a hit: at the top dose activity change, negative = inhibition, actives largely listed as inhibitors. 340,000 compounds, 0.4% hits; active = falling curve of any shape with a large fitted effect; inconclusive = falling curve, mostly with a smaller effect; inactive = flat or rising curve; cell line not stated here;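 also: intracellular cAMP measured with PDE inhibitor Ro 20-1724 present during compound exposure; potency is read from the fitted curve at half-maximal effect; % is scaled to controls: 0 for no effect and ±100 for the full control effect; nearly all actives have a fitted effect of over 65% in size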
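HTRF cAMP read-out (cAMP-d2 plus anti-cAMP antibody-K in lysis buffer, 30 min RT). Before lysis, cells are exposed to compounds with […] for 30 min at 37C in DPBS containing Ca/Mg, BSA and Tween 20.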
TRPV1 PAM: enhances activation of the human vanilloid receptor TRPV1. Q8NER1. TRPV1-expressing cells, Fluo-8 calcium influx, capsaicin EC20 potentiation; host cell line not named in the record; control for the full effect not named in the record. potentiation, % at 8.33 µM. 320,000 compounds, 0.02% hits. AID 540277; active means potentiation above 80%; inconclusive means 30% to 80%; inactive means below 30%; also: 0% is about no effect
Target sequence (Q8NER1 whole entry, looked up): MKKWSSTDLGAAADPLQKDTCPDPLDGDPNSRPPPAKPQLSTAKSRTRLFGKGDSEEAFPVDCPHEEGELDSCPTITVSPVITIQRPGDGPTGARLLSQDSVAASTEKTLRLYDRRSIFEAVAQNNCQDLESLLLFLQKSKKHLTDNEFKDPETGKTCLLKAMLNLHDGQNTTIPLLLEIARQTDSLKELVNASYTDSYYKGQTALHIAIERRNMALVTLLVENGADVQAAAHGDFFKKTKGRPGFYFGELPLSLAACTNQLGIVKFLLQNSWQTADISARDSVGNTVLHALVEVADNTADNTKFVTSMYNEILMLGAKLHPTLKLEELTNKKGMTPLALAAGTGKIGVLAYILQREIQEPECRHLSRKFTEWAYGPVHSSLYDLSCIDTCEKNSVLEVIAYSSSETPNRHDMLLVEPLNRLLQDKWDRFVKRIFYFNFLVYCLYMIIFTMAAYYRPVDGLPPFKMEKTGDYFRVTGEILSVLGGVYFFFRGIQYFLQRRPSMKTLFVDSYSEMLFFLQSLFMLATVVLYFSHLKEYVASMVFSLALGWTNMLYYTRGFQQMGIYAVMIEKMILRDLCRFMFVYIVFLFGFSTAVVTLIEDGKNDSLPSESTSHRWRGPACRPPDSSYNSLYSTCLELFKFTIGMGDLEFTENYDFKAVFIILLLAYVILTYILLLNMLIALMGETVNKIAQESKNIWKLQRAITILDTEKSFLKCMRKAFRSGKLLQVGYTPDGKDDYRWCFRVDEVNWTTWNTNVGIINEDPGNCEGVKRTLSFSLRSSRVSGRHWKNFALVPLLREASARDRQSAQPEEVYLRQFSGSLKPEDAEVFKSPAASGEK
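Cells expressing TRPV1 were dye-loaded with Fluo-8 and read kinetically: 10 s baseline, 3 min after compound (agonist portion), then 2 min after EC20 capsaicin (allosteric enhancer portion). Calcium-bound dye fluorescence at 480/520 nm.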
Sfp PPTase inh: blocks B. subtilis Sfp PPTase activity; Q9F4F7; Biochemical Sfp PPTase activity, qHTS; Potency, µM, for the others: max response, negative = inhibition, hits mostly inhibitors; 310,000 compounds, 3.5% hits; AID 1490; active = well fitted inhibition curve with a large enough effect; inconclusive = small, poorly fitted or top-dose-only effect, or another doubt; inactive = no such curve, though single readings can be large or run the other way;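 also: the enzyme is Sfp with the accession as filed and its product quenches rhodamine fluorescence; potency is read from the fitted curve at half-maximal effect; 0% = enzyme reaction without inhibitor and -100% = no enzyme wells; top concentration of the series not given in the record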
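Step 1, compound plus 15 nM Sfp-PPTase, 15 min, room temperature. Step 2, add rhodamine-CoA (5 uM) and BHQ-2-YbbR (12.5 uM). Step 3, read 525/598 nm fluorescence at 0 and 30 min.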
* marks the source's active call; other numbers are inactive results; ? = inconclusive; · = no result given; [ ] = remark or other dose.

SMILES	Menin-MLL FL inh	gsp ag	CtBP-E1A inh	ClpP mod	gsp antag	TRPV1 PAM	Sfp PPTase inh
Cc1csc(NC(=O)CCNS(=O)(=O)c2ccc3c(c2)c(=O)n(C)c(=O)n3C)n1	5.5	-5.1%	-7.6	-3.0%	9.5%	0.4	-8.5%
COc1ccc(C2CC(c3cccs3)=NN2C(=O)COC(=O)c2cc3ccccc3cc2O)cc1OC (stereo not given)	?	19.2%	1.7	-1.3%	5.9%	-10.0	20.6%
O=C(NCC(=O)N1CCCCC1)c1sc2ccccc2c1Cl	·	19.9%	1.0	1.0%	5.0%	-20.9	·
Cc1c(C(=O)N2CCCCC2)sc(NC(=O)C23CC4CC(CC(C4)C2)C3)c1C#N	·	-3.8%	4.1	-1.6%	-4.0%	·	·
O=C(COc1cccnc1[N+](=O)[O-])NC1CCS(=O)(=O)C1 (stereo not given)	0.0	-21.0%	-11.1	1.8%	17.5%	29.5	25.9%
CC(=O)N/N=C/c1cc(C)n(-c2ccc(Br)cc2)c1C	3.7	-2.8%[15.4 µM]	4.4	0.5%	26.9%	-5.3	9.2%
O=C(NCCS(=O)(=O)N1CCN(c2ccc(F)cc2)CC1)C12CC3CC(CC(C3)C1)C2	·	-6.1%	2.4	-0.7%	-14.5%	-4.9	·
Cc1cc(C)c(NC(=O)C2=COCCO2)c(C)c1	·	2.5%[15.4 µM]	5.9	·	-1.3%	-8.1	·
CCCCNC(=S)N/N=C1\CCCCc2ccccc21	-0.1	-19.4%	-16.6	0.4%	-13.3%	-16.2	-5.9%
CCc1cccc2c(C(=O)CSc3nncn3-c3ccccc3OC)c[nH]c12	5.6	-5.2%	5.0	3.1%	-22.4%	7.6	-18.7%
CN(CCCNC(=O)c1cccc(N2CCCC2=O)c1)c1ccccc1	0.3	-62.3%[inhibitor]	8.3	-0.9%	-8.9%	5.1	-6.1%
Cc1cc(NC(=O)c2ccc3c(c2)OCO3)ccc1NC(=O)c1ccccc1	1.6	-1.4%	-2.9	·	4.1%	2.3	23.0%
COc1ccc2cc(C3(C)NC(=O)N(CC(=O)Nc4c(C)n(C)n(-c5ccccc5)c4=O)C3=O)ccc2c1 (stereo not given)	0.5	?	1.3	-1.0%	19.2%	6.2	10.3%
COc1ccccc1NS(=O)(=O)c1ccc2c(c1)NC(=O)C(C)S2 (stereo not given)	·	7.2%	1.6	0.0%	-16.4%	2.6	1.1%
O=C(NC(=S)Nc1ccccc1N1CCCCC1)c1ccc(F)cc1	·	-2.5%	-17.9	-0.8%	-4.8%	-3.1	5.5%
NC(=O)CSc1nnc(NC(=O)C23CC4CC(CC(C4)C2)C3)s1	0.0	1.6%	4.2	-1.9%	-2.0%	20.9	-0.2%
COc1ccc(N2C(=O)CC(NCc3cccs3)C2=O)cc1 (stereo not given)	-0.6	-0.9%	3.1	0.0%	11.7%	2.7	11.7%
O=C(CSc1nc2ccccc2s1)NNC(=S)Nc1ccc(Cl)cc1	3.1	7.7%[15.4 µM]	-9.1	0.1%	?	10.0	12.7%
O=C(COc1coc(CN2CCN(Cc3ccccc3)CC2)cc1=O)Nc1ccccc1	·	0.2%[15.4 µM]	8.9	-10.4%	-34.8%	-4.3	·
CCOC(=O)c1ccc(NC(=O)Cn2c(=O)oc3ccccc32)cc1	2.0	?	-1.1	1.4%	-5.6%	-10.3	10.7%
CNc1oc(C)nc1S(=O)(=O)c1ccccc1	4.9	-49.5%[inhibitor]	8.7	1.4%	-2.1%	3.3	31.6µM*
O=C(O)CC/C(=N/NC(=O)CNC(=O)c1ccc2c(c1)OCCO2)c1ccccc1	-5.3	26.4%	1.2	·	3.5%	7.1	5.0%
OC1CCC(Nc2ncnc3sccc23)CC1 (stereo not given)	6.2	1.8%[15.4 µM]	2.9	·	19.3%	0.8	14.4%
COc1cc(OC)cc(C(=O)NC(C(=O)NCCc2ccccn2)C(C)C)c1 (stereo not given)	·	7.5%	-7.7	-11.1%	3.1%	·	·
COc1cc(-c2nnc3sc(Cc4ccccc4)nn23)cc(OC)c1OC	1.9	3.5%	-21.8	-5.5%	-1.3%	-0.4	-15.3%
O=C(NNC1=NS(=O)(=O)c2ccccc21)c1ccccc1	0.6	24.5%	0.0	-0.7%	6.9%	1.4	19.3%
Cc1cccc(C)c1NC(=O)COC(=O)C1CC1	·	?	0.7	1.2%	11.2%	4.8	·
COc1ccc(C(C#N)N2CCC(c3ccccc3)=N2)cc1 (stereo not given)	5.6	1.4%	1.6	·	7.2%	-5.1	11.7%
Cc1[nH]c2ccc(C(=O)NCc3ccccn3)cc2c1C	2.9	-1.1%	-23.6	-8.7%	1.2%	6.3	1.4%
CCc1cccc(CC)c1NC(=O)COC(=O)C1(C)CC1(Cl)Cl (stereo not given)	-0.7	-3.7%	-14.4	-1.7%	-2.7%	-5.2	14.8%
CC1CCCCC1NS(=O)(=O)c1ccc2c(c1)CCC(=O)N2 (stereo not given)	·	6.4%	0.2	-2.0%	12.9%	-11.3	·
C/C=C/c1ccc(OCCNCc2ccccc2)c(OC)c1	-1.0	6.2%	-1.0	-2.0%	6.0%	2.3	2.5%
Cc1ccc(-c2nn(-c3ccccc3)cc2CN(Cc2ccccc2)C(=O)c2ccco2)o1	-0.5	16.5%	-17.2	-12.5%	?	-2.4	17.8µM*
CC(=O)CSc1nc(C(F)(F)F)cc(=O)n1-c1ccccc1	1.4	-4.3%	4.4	1.0%	3.0%	-6.4	-1.2%
COc1ccc(C2=NN(CC(=O)Nc3cc(C)ccc3C)C(=O)CC2)cc1	6.4	-1.3%	3.1	-0.6%	9.9%	5.6	-11.5%
C#CCNC(=O)C1=C[C@@H](c2ccc3c(c2)OCO3)[C@H](CCCO)[C@@H](OCC)O1	2.9	12.9%	4.9	-4.2%	-6.9%	-20.4	-6.0%
O=C(c1ccccc1)C1C(c2ccccc2)C1[N+](=O)[O-] (stereo not given)	-3.4	-15.0%[15.4 µM]	6.0	·	?	-3.2	14.8%
O=C(NCc1ccc2c(c1)OCO2)c1c(Cl)cccc1Cl	-6.2	-28.4%[15.4 µM]	4.6	1.6%	?	?	20.6%
COc1ccccc1CNC(=O)CS(=O)(=O)c1ccccc1	3.2	-16.2%	10.2	0.6%	5.8%	-0.2	7.0%
CCc1ccc(NC(=S)N2CCN(c3cccc(C(F)(F)F)c3)CC2)cc1	1.7	-33.4%[inhibitor]	8.5	-0.9%	9.5%	0.6	7.9%
O=C(c1cc(-c2cccc(O)c2)on1)N1CCCCC1	-0.1	-14.2%	-10.5	-2.7%	-1.0%	10.1	-8.9%
Cc1nc2c(C)cccn2c1/C(O)=C1\C(=O)C(=O)N(CCN2CCOCC2)C1c1cccs1 (stereo not given)	5.8	?	-8.9	-6.0%	7.4%	-2.9	-5.9%
N#C/C(=C\c1ccc(-c2ccccc2)o1)C(=O)Nn1cnnc1	4.2	9.1%	22.4	-3.4%	22.8%	-3.6	19.2%
COc1ccc(NC(=O)C(NC(C)=O)C(=O)NCc2ccc(F)cc2)cc1 (stereo not given)	0.4	8.6%	-0.3	-1.2%	-1.2%[15.4 µM]	19.8	14.0%
O=C(CCNC(=O)Cn1ccc2ccccc2c1=O)NCCC1=CCCCC1	-7.2	12.9%	·	-16.2%	7.7%	-2.1	5.8%
CC(C)N=C(NC#N)SCc1ccccc1F	4.8	1.2%	7.8	0.8%	3.2%	25.5	4.0%
CC1CNC(=S)N(c2ccc(F)cc2)C1=O (stereo not given)	·	-5.0%	-0.3	-1.1%	8.3%	·	·
Cc1ccc(C(=O)CSc2nnc(C(C)C)n2C)cc1C	-0.5	9.5%[15.4 µM]	0.0	·	·	14.5	12.0%
CC(C)=CCCC(C)CN1CCC(N2CCC(C(=O)N3CCOCC3)CC2)CC1 (stereo not given)	-0.1	-0.4%	·	0.7%	8.9%	0.7	12.4%
CCCCC1(Cc2ccc([N+](=O)[O-])cc2)C(=O)N(c2ccccc2)N(c2ccccc2)C1=O	2.1	-27.0%	-14.8	2.1%	?	-4.1	20.2%
O=C(Nc1cccnc1)c1ccc(C(=O)Nc2cccnc2)cc1	0.5	1.5%[15.4 µM]	-5.2	·	4.6%	3.2	22.0%
COc1cc(/C=N/Nc2nc(C)cc(C)n2)ccc1O	·	-50.0%[inhibitor]	-1.6	-0.4%	·	·	·
COc1cc(C2C(C#N)=C(N)Oc3cc(C)n(Cc4ccccn4)c(=O)c32)cc2c1OCO2 (stereo not given)	2.7	·	·	·	·	0.1	-19.2%
C=CCNC(=O)COC(=O)c1ccc(Sc2nncn2C)c([N+](=O)[O-])c1	3.4	4.3%[15.4 µM]	-17.6	·	6.6%	-1.0	17.4%
CN(C)C(=O)CSc1n[nH]c(-c2ccco2)n1	19.4	1.2%[15.4 µM]	1.8	·	13.5%	1.0	-2.5%
CCN(C(=O)COC(=O)c1c(C)noc1C)C1CCS(=O)(=O)C1 (stereo not given)	4.1	4.5%	-1.8	·	4.0%	-20.0	15.4%
O=C1O/C(=C\C(=O)N2CCOCC2)c2ccccc21	1.4	-3.2%	-2.5	-3.4%	5.9%	6.7	-18.4%
C#CCCC/C(=C\C(=O)N(C)[C@H](C(=O)N(C)[C@H](C(=O)N(C)[C@H](C(=O)N(C)[C@H](C(N)=O)C(C)C)C(C)C)C(C)C)C(C)C)OC	·	·	2.1	1.2%	3.6%	·	·
NC(=O)c1ccsc1NC(=O)CS(=O)(=O)c1ccccc1	·	-4.1%	3.5	-1.1%	4.8%	20.6	·
CCOC(=O)C(CC(=O)c1ccccc1)CC(=O)c1ccccc1	-1.3	51.3%	17.4	0.2%	-4.4%	-36.7	6.6%

The listing continues.
SMILES	Menin-MLL FL inh	gsp ag	CtBP-E1A inh	ClpP mod	gsp antag	TRPV1 PAM	Sfp PPTase inh
Nc1nnc(SCc2ccc(F)cc2Cl)s1	-0.2	-0.4%	8.7	0.4%	-2.4%	6.6	-7.5%
Cc1nc(C(=O)NC2CCOCC2)sc1C1(C)CC(c2ccccc2)=NO1 (stereo not given)	0.0	-9.3%	·	0.7%	-9.6%	2.0	-2.9%
O=C(C1=C[C@@H](c2ccc3c(c2)OCO3)C[C@@H](OCCCCO)O1)N1CCOCC1	9.4	·	6.0	-1.2%	5.4%	-8.7	?
N#Cc1ncn(C2OC(CO)C(O)C2O)c1N (stereo not given)	·	9.4%	-8.7	-0.8%	·	·	·
